Bioassay records as filed in PubChem BioAssay.
Tau filament bind = qHTS Assay for Tau Filament Binding. recombinant tau filaments, thioflavin S fluorescence, 15 h; filaments grown with octadecylsulfate alongside compound. Potency, µM (titrated, usually from 57.1 µM), for the others: top-dose activity change, negative = inhibition. 71,000 tested, 2% active. AID 596, 2007;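 note: potency is the fitted concentration of half-maximal effect; % is set by controls: 0 for no effect and ±100 for the full control effect; actives lower thioflavin S fluorescence by blocking filaments or displacing dye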
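Thioflavine S fluorescence (ex 450, em 510 nm) reports filaments formed from 1 uM human tau plus 30 uM ODS over 15 h at 37 C (10 mM HEPES pH 7.4, 100 mM NaCl, 5 mM DTT); compounds displacing dye or blocking filaments lower signal.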
BRCT PPI green = qHTS Assay for Inhibitors of BRCT-Phosphoprotein Interaction (Green Fluorophore) | Breast cancer type 1 susceptibility protein (Homo sapiens), P38398 | BRCA1 BRCT-phosphopeptide binding, green fluorescence polarization | Potency, µM (titrated, usually from 76.9 µM), for the others: at the highest dose activity change, negative = inhibition, hits mostly inhibitors | 75,000 tested, 0.05% active | AID 875, 2007;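 note: potency is the fitted concentration of half-maximal effect; plate controls were peptide without protein for full effect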
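Compounds were incubated for 12 min at room temperature with a complex of 100 nM fluorescein-tagged pBACH1 decapeptide and 250 nM His-tagged BRCT protein. Buffer was phosphate pH 7.3 with EDTA, DTT and Tween 20. Disruption of binding lowers the polarization signal.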
USP2a inhib = qHTS Assay for Inhibitors of Ubiquitin-specific Protease USP2a; Ubiquitin carboxyl-terminal hydrolase 2 (Homo sapiens), O75604; USP2a enzymatic assay, qHTS inhibition; Potency, µM (series often up to 38.3 µM), without a hit: at the highest dose activity change, negative = inhibition, hits mostly inhibitors; 60,000 tested, 0.1% active;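 note: potency is the fitted concentration of half-maximal effect; nearly all actives have a fitted effect of over 60% in size; plate controls were DMSO for no effect and NEM full inhibition control for full effect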
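USP2 core (20 nM final) was preincubated with compound for 30 min at RT in 20 mM Tris-HCl pH 8.0, 2 mM CaCl2, 2 mM beta-mercaptoethanol; Ub-PLA2 (20 nM) plus NBD C6-HPC (20 uM) then added, fluorescence read after 2.5 h.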
BRCT inh red = qHTS Assay for Inhibitors of BRCT-Phosphoprotein Interaction (Red Fluorophore) | Breast cancer type 1 susceptibility protein (Homo sapiens), P38398 | BRCT-phosphopeptide binding, red fluorescence polarization | Potency, µM (series often up to 76.9 µM), for inactives: top-dose activity change, negative = inhibition, most hits filed as inhibitors | 75,000 tested, 0.03% active; note: % is set by controls: 0 for no effect and ±100 for the full control effect
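Rhodamine-labelled pBACH1 10-mer (100 nM) bound to BRCT domain (100 nM) at pH 7.3; compounds incubated 12 min room temperature, polarization read. Free peptide defines full inhibition; unlabelled decapeptide titrated as control.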
HEK293 cAMP ctrl = qHTS Assay for Agonists of the Thyroid Stimulating Hormone Receptor: Activators of Intracellular cAMP Concentrations in Parental HEK 293. Potency, µM (series often up to 57.1 µM), for the others: top-dose activation, hits mostly activators. parental HEK293 CNG cAMP sensor, membrane potential fluorescence. 73,000 tested, 2.5% active. AID 938, 2007; note: potency is the fitted concentration of half-maximal effect; % of control where 0% means no effect; nearly all actives have a fitted effect of over 55% in size
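Parental HEK 293 cells stably expressing a cAMP-gated CNG channel were loaded with membrane potential dye containing 100 uM RO 20-1724 for 60 min. Compound added for 30 min; depolarization read as fluorescence intensity at 590 nm.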
Casp1 inh = qHTS Assay for Allosteric/Competitive Inhibitors of Caspase-1; 75,000 tested, 0.03% active; Potency, µM (series often up to 57.5 µM), for the others: top-dose activity change, negative = inhibition, hits mostly inhibitors; Caspase-1 enzyme, Ac-WEHD-AFC fluorogenic rate; P29466;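 note: potency is the fitted concentration of half-maximal effect; plate controls were vehicle for no effect and no substrate for full effect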
Caspase-7 inhib = qHTS Assay for Allosteric/Competitive Inhibitors of Caspase-7. recombinant caspase-7, Ac-DEVD-AFC fluorescence rate. Potency, µM (top dose mostly 57.5 µM), for the others: at the highest dose activity change, negative = inhibition, usual class: inhibitors. 75,000 tested, 0.02% active; active = well fitted inhibition curve with a large enough effect in the main read-out, with a control signal flat, not every such curve was filed as active; inconclusive = small, poorly fitted or top-dose-only effect, or a change in a side signal; note: potency is the fitted concentration of half-maximal effect; % of control where 0% means no effect
Rhodamine fluor = qHTS Assay for Spectroscopic Profiling in Rhodamine Spectral Region; Rhodamine-region fluorescence, 547/598 nm, Tris buffer; stronger effect = higher value; max dye-equivalent concentration, M; 59,000 tested, 0.05% active; in the data active = max dye-equivalent concentration above about 11 nM; inconclusive = between about 1.1 nM and that limit
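qHTS spectral profiling of compounds without any target or enzyme present, in pH 8.0 Tris buffer; plates were read after a 15-minute room-temperature incubation using the rhodamine-region filter set.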
Pol III holo inh = qHTS Assay for Inhibitors of DNA Polymerase III Holoenzyme System. Potency, µM (titrated, usually from 57.1 µM), inactives show at the highest dose activity change, negative = inhibition. reconstituted DNA polymerase III holoenzyme replication, biochemical. 71,000 tested, 0.25% active; note: potency is the fitted concentration of half-maximal effect; % is set by controls: 0 for no effect and ±100 for the full control effect
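Reconstituted *E. coli* holoenzyme (0.35 nM Pol III, 1 nM beta, 154 nM SSB, 2 nM primase) was preincubated with compound for 15 min at RT. Synthesis on 1.4 nM ssM13Gori ran 35 min, then was stopped with PicoGreen/EDTA and read as dsDNA fluorescence.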
ALOX15 inhib = qHTS Assay for Inhibitors of 15-hLO (15-human lipoxygenase). Polyunsaturated fatty acid lipoxygenase ALOX15 (Homo sapiens), P16050. purified 15hLO-1, xylenol orange hydroperoxide absorbance. Potency, µM (series often up to 57.1 µM), without a hit: at the top dose activity change, negative = inhibition, usual class: inhibitors. 74,000 tested, 1.4% active. AID 887, 2007; note: potency is the fitted concentration of half-maximal effect; % is set by controls: 0 for no effect and ±100 for the full control effect; nearly all actives have a fitted effect of over 55% in size
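Readout: Fe(III)-xylenol orange absorbance, 573-to-405 nm ratio as reaction progress. Enzyme 40 nM purified human 15hLO-1, substrate 50 uM arachidonic acid, 6 min RT after 15 min compound preincubation; Hepes pH 7.5 buffer with Triton X-100.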
An asterisk follows results filed as active; i = inactive; u = inconclusive; x = not tested or not shown; [ ] = dose if it differs, or a comment. Unless noted, calls come from the whole dose curve; as a rule, active = well fitted curve in the direction sought with a large enough effect; inconclusive = small, poorly fitted or top-dose-only effect, or another doubt; inactive = no such curve, though single readings can be large; an effect the other way counts as inactive or inconclusive.

The opening six entries as a preview:
SMILES	Tau filament bind	BRCT PPI green	USP2a inhib	BRCT inh red	HEK293 cAMP ctrl	Casp1 inh	Caspase-7 inhib	Rhodamine fluor	Pol III holo inh	ALOX15 inhib
COc1ccc(-c2cc3ccccc3oc2=O)cc1NC(=O)c1ccc(Br)o1	i	-0.2%	-17%	0.1%	u	u	-13%	i	-2%	u
CC(=O)Nc1cccc(-c2nnc(-c3ccccc3)o2)c1	19%	2.3%	7%	-3.6%	u	0%	3%	i	2%	-3%
CCOc1ccc(-n2c(SCC(=O)Nc3ccc(OC)cc3)nc3c(c2=O)SCC3)cc1	1%	1.4%	49%[activator]	1.3%	-4%	0%	2%	i	-5%	-3%
CCc1nnc2n1N=C(c1ccc(-c3ccc(Cl)cc3Cl)o1)CS2	25µM*	0.0%	38%[activator]	-0.6%	10%	2%	-4%	i	1%	u
Cc1cccc(-c2nnc(-c3ccccc3)o2)c1	3%	-0.2%	-1%	1.1%	u	-2%	-2%	x	-9%	1%
Cc1ccc(S(=O)(=O)n2nc(OC(=O)c3ccco3)cc2N)cc1	-4%	-2.0%	4%	0.4%	-4%	-1%	0%	i	-6%	-14%

Results (from the top)
SMILES	Tau filament bind	BRCT PPI green	USP2a inhib	BRCT inh red	HEK293 cAMP ctrl	Casp1 inh	Caspase-7 inhib	Rhodamine fluor	Pol III holo inh	ALOX15 inhib
COc1ccc(-c2cc3ccccc3oc2=O)cc1NC(=O)c1ccc(Br)o1	i	-0.2%	-17%	0.1%	u	u	-13%	i	-2%	u
CC(=O)Nc1cccc(-c2nnc(-c3ccccc3)o2)c1	19%	2.3%	7%	-3.6%	u	0%	3%	i	2%	-3%
CCOc1ccc(-n2c(SCC(=O)Nc3ccc(OC)cc3)nc3c(c2=O)SCC3)cc1	1%	1.4%	49%[activator]	1.3%	-4%	0%	2%	i	-5%	-3%
CCc1nnc2n1N=C(c1ccc(-c3ccc(Cl)cc3Cl)o1)CS2	25µM*	0.0%	38%[activator]	-0.6%	10%	2%	-4%	i	1%	u
Cc1cccc(-c2nnc(-c3ccccc3)o2)c1	3%	-0.2%	-1%	1.1%	u	-2%	-2%	x	-9%	1%
Cc1ccc(S(=O)(=O)n2nc(OC(=O)c3ccco3)cc2N)cc1	-4%	-2.0%	4%	0.4%	-4%	-1%	0%	i	-6%	-14%
CCOc1ccccc1-c1nc(-c2ccc(NC(=O)c3ccc(Br)o3)cc2)no1	i	0.1%	42%[activator]	-0.3%	11%	-1%	-3%	i	7%	-7%
CCOC(=O)c1nn(-c2ccc(OC)cc2)c(=O)c2c(N)scc12	16µM*	-2.4%	20%	-2.1%	-2%	u	-11%	i	-2%	7.9µM*
O=C(NCc1ccc(Cl)cc1)c1noc2c1CCCCC2	-2%	-0.3%	12%	1.0%	17%	-2%	-3%	i	2%	-5%
CCOC(=O)c1cc2nc(Nc3ccc(OC)cc3)sc2s1	u	6.7%	29%	-0.6%	-11%	-10%	-10%	i	1%	-3%
COC(=O)c1cc2oc(C)cc2n1CC(=O)Nc1cc(C)cc(C)c1	377%	-2.4%	8%	0.0%	24%	0%	-1%	i	0%	0%
O=C(Nc1nnc(CC(=O)N2CCOCC2)s1)c1cccs1	4%	-0.9%	-4%	0.1%	1%	-1%	0%	i	-2%	-6%
Clc1cccc(Nc2ncnc3c2cnn3-c2ccccc2)c1	310%	1.7%	x	-0.2%	20%	-3%	-5%	x	1%	-20%
Cc1ccc(S(=O)(=O)CCC(=O)c2ccc(O)cc2O)cc1	-12%	-1.2%	x	-0.3%	u	-1%	1%	i	-9%	-13%
c1ccc(-c2nc(NCCCN3CCOCC3)c3ccccc3n2)cc1	5µM*	8.7%	14%	-7.6%	18%	0%	0%	i	-8%	u
Cc1ccc(S(=O)(=O)N2CCCC2C(=O)NC2=NCCS2)cc1 (stereo unspecified)	-14%	-1.4%	u	1.5%	5%	1%	0%	i	-5%	7%
COCCSc1ccccc1C(=O)NCc1ccco1	-5%	0.1%	-7%	0.2%	-6%	0%	0%	i	-1%	-29%
Oc1cccc(C(=S)N2CCN(Cc3ccccc3)CC2)c1	-3%	-1.6%	16%	-1.7%	-18%	-1%	-1%	i	-1%	13µM*
CCC1CCCCN1Cc1nc2c(c(=O)n(C)c(=O)n2C)n1Cc1ccccc1 (stereo unspecified)	-25%	-3.3%	x	-0.3%	11%	-3%	-1%	x	-4%	-15%
N#Cc1nc(-c2ccco2)oc1NCc1cccnc1	0%	0.6%	-2%	-0.5%	2%	-1%	-1%	i	1%	7%
CCOC(=O)Nc1nc(-c2ccccc2)c(C)s1	11%[11.4 µM]	-0.3%[15.4 µM]	x	1.0%[15.4 µM]	-6%[11.4 µM]	1%[11.5 µM]	0%[11.5 µM]	i	-9%[11.4 µM]	-11%[11.4 µM]
O=C(Nc1ccc(C2CCCCC2)cc1)C1CCCN(c2ncccn2)C1 (stereo unspecified)	3%	1.2%	0%	-0.3%	-1%	-1%	0%	i	-5%	-1%
O=C(O)c1cc(S(=O)(=O)O)ccc1O	-13%	-3.2%	-7%	0.1%	-1%	0%	2%	i	0%	-6%
CC1CN(c2cc(=O)n(Cc3ccc(F)cc3)c(=O)[nH]2)CC(C)O1 (stereo unspecified)	-12%	-2.0%	x	-0.2%	3%	0%	2%	x	-4%	4%
COc1cccc(-c2nn(C)c3sc(C(=O)NCc4ccc5c(c4)OCO5)cc23)c1	181%	0.7%	x	-0.5%	16%	-2%	-4%	x	0%	-16%
CCN(CC)C(=O)CSc1nc(O)cc(=O)n1C	20%	0.6%	-3%	-2.3%	4%	1%	1%	i	-2%	7%
CCN(CC)CC(=O)Nc1cc(C)c2c(=O)oc3ccccc3c2n1	-8%	-0.7%	x	0.0%	4%	-4%	-2%	x	-4%	1%
CCCCCCn1c(CN2CCCCC2CC)nc2c1c(=O)n(C)c(=O)n2C (stereo unspecified)	0%	-4.5%	x	0.9%	8%	-3%	1%	x	-2%	u
Cc1nc2ccccn2c1-c1csc(NCc2ccco2)n1	0%	-2.1%	3%	0.3%	23%	-2%	-1%	i	-3%	7%
CCOC(=O)c1cnc(SCC)[nH]c1=O	1%	-0.9%	4%	-0.5%	1%	-1%	1%	i	0%	4%
CC1CN(c2cc(=O)n(-c3ccccc3)c(=O)[nH]2)CC(C)O1 (stereo unspecified)	-5%	-10%	x	0.7%	18%	-1%	1%	x	0%	-30%
COc1ccc(-c2nc3c(n2O)CCC/C3=N\O)cc1	6%[11.4 µM]	0.4%	-1%[7.66 µM]	1.2%	-7%[11.4 µM]	-1%	1%	x	-3%[11.4 µM]	0%[11.4 µM]
Cn1c(=O)c2c(ncn2CC(=O)N2CCN(c3ccccc3F)CC2)n(C)c1=O	10%[11.4 µM]	-1.4%	1%[7.66 µM]	-3.8%	3%[11.4 µM]	0%	0%	x	-1%[11.4 µM]	-5%[11.4 µM]
COC(=O)c1ccc(OC(=O)C2CC(=O)N(c3cccc(C)c3)C2)cc1 (stereo unspecified)	13%	-2.5%	17%	0.9%	24%	-2%	-5%	i	0%	6%
O=C(c1ccco1)N1CCN(c2nc(C3CC3)nc3sc4c(c23)CCCC4)CC1	56%	0.3%	19%	-0.3%	u	-1%	-29%	i	6%	-26%
COc1ccccc1CNc1nc(-c2ccc(N(C)C)cc2)nc2ccccc12	i	-0.4%	5%	-3.3%	-27%	-9%	-16%	i	-1%	20µM*
C1CCC(n2nnnc2CN2CCN(C3CCCC3)CC2)CC1	4%	-2.1%	19%	1.0%	14%	-1%	-1%	i	-4%	7%
Cc1cc(=O)oc2n[nH]c(-c3ccccc3)c12	-2%	-0.3%	0%	-1.1%	15%	1%	-3%	i	0%	12%

Three entries from above, sorted by their value in Pol III holo inh, high to low.
Molecule,Pol III holo inh
CC(=O)Nc1cccc(-c2nnc(-c3ccccc3)o2)c1,2%
COC(=O)c1ccc(OC(=O)C2CC(=O)N(c3cccc(C)c3)C2)cc1 (stereo unspecified),0%
Cc1cccc(-c2nnc(-c3ccccc3)o2)c1,-9%

An excerpt; rates above refer to the full screens.
